Screens from PubChem BioAssay.
eIF4H FP inh = inhibitors of RNA binding by human eIF4H | eIF4H fluorescence polarization binding assay | inhibition, % at 35 µM | hit rate 0.94% among 290,000 | AID 2012;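 active means 50% or more with normal probe brightness, or confirmed in later tests; inconclusive means above 50% with abnormal brightness, or retests that disagree; inactive means below 50% or failed in later tests; about a fifth of its hits are not listed in these tables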;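 further: calls also rest on retests at 20 µM and on dose response follow-up; 0% = protein and probe with vehicle and 100% = probe without protein; strong numbers were not always called active; many hits fall short of the cut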
PABP FP inh = PABP-poly(A) binding inhibition | P11940 | PABP-poly(A) RNA binding, fluorescence polarization | inhibition, % at 35 µM | hit rate 1% among 290,000 | AID 2014;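 active means 50% or more with normal probe brightness, or confirmed in later tests; inconclusive means above 50% with abnormal brightness, or retests that disagree; inactive means below 50% or failed in later tests; about a fifth of its hits are not listed in these tables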;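 further: calls also rest on retests at 20 µM and on dose response follow-up; controls were probe without protein and protein plus probe with vehicle; some compounds called inactive have numbers as strong as hits; many hits fall short of the cut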
Target sequence (P11940 whole entry, looked up): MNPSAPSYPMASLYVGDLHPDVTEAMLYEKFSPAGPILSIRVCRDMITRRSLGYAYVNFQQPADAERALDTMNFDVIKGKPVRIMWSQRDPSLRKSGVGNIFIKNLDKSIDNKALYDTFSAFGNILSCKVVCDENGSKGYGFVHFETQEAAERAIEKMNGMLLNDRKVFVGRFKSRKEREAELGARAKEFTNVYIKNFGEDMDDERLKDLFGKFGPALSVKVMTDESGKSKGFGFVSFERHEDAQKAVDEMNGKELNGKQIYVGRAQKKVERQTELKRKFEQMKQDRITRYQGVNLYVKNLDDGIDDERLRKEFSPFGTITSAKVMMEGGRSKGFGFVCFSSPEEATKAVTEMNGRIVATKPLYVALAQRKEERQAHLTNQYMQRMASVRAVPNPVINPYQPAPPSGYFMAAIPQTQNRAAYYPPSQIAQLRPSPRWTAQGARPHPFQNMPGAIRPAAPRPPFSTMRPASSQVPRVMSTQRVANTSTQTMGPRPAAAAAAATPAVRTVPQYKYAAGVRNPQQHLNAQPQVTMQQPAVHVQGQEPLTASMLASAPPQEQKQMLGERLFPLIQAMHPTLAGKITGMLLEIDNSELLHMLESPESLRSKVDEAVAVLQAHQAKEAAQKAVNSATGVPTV
CSC inhib = cancer stem cell inhibition | cancer stem cell-like cells viability, luminescence | inhibition, % at 7.5 µM | hit rate 1.1% among 300,000;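 active means mean at 75% or more and at least half the replicates too; inconclusive means mean and replicates disagree; tested in HMLE shEcad cells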;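 further: 0% = median of negative and 100% = median of positive control wells; the first replicate is given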
HIV Env fusion = HIV envelope-mediated fusion inhibition; HeLa-JRFL Env/CEM21 cell fusion, luciferase; inhibition, % at 12.3 µM; hit rate 1.1% among 360,000;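 active means mean replicate inhibition score of at least 50 and every replicate individually at or above 50; inconclusive means only one of the two criteria met; inactive means mean below 50 and not all replicates reaching 50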;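 further: 0% = plate neutral controls and 100% = maraviroc near 300 nM; one replicate is shown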
MT1-MMP act inh = MT1-MMP (human) activation inhibition; AID 651647; P50281; GFP/RFP ratio change, % at 20 µM; HT1080 RFP-PRO-GFP cells, GFP/RFP ratio fluorescence, overnight; percent of plate control window, DMSO zero; hit rate 0.061% among 360,000;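 active means GFP/RFP ratio change of at least 30% with cell ATP level not reduced by more than half and red fluorescence within 50% of control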; further: strong numbers were not always called active
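Assay system: HT1080 cells carrying an RFP-PRO-GFP reporter | Dosing: Single dose of 20 µM compound, 1% DMSO final | Incubation: Cells overnight before dosing, compound overnight, 37 °C, 5% CO2 | Evaluation: GFP/RFP fluorescence ratio | Control set: DMSO and RFP-L50D-GFP cell wells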
Yeast UUG start = yeast start codon fidelity modulation. activity score, % at 18.7 µM. S. cerevisiae UUG-firefly luciferase reporter, luminescence/redox ratio. hit rate 0.13% among 350,000;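 active means replicate mean at a twofold rise or more, about +100% in these data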;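 further: firefly luciferase made from a UUG start codon reports start codon fidelity; reporter light over untreated wells divided by growth signal over untreated wells; some hits fall short of that in this replicate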
Rce1 inh = inhibitors of yeast Ras-converting enzyme | hit rate 0.27% among 290,000 | AID 2563 | yeast membranes, quenched prenylated peptide cleavage fluorescence | calls only | Q03530;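 active means fall in fluorescence gain of 50% or more versus controls, with final raw signal at or below 3038400; inconclusive means same 50% fall but final raw signal above 3038400; inactive means fall in fluorescence gain under 50%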;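 further: plate controls were neutral control wells for no effect and wells lacking membranes for full effect; tested at 10 µM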
Target sequence (Q03530 whole entry, looked up): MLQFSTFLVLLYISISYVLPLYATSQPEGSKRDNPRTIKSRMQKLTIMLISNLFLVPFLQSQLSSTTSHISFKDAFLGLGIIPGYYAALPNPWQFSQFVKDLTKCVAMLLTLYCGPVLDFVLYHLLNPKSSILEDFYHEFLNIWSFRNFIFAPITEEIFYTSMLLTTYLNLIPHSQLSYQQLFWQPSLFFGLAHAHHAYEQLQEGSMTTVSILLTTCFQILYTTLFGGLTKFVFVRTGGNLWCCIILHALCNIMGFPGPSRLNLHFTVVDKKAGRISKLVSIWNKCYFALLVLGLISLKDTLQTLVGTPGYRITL
eIF4H FP inh retest = further read-out of eIF4H FP inh, marked with its call; inhibition, %; compound at 20 µM; confirmation average;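 mean of two retest wells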
PABP FP inh retest = also measured in PABP FP inh; calls as there; inhibition, %; compound at 20 µM; confirmation repeats;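 mean of two retest wells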
MT1-MMP act inh RFP = further read-out of MT1-MMP act inh, marked with its call; RFP signal change, %; measured here: RFP expression control read;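 0 = vehicle wells; hits needed this value within 50% of zero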
Starred values were filed as active, the others as inactive. The list is partial; count on the stated rates, not on these rows.

Results for Cc1cc(NC(=O)c2c(-c3ccccc3Cl)noc2C)no1 ?
eIF4H FP inh: 0; PABP FP inh: -10; CSC inhib: -9; MT1-MMP act inh: 1; Rce1 inh: inactive; MT1-MMP act inh RFP: 2

What do the screens show for `CCOc1nc(NCc2ccco2)nc(Nc2ccc(OC)cc2)n1`?
eIF4H FP inh: 5; PABP FP inh: 3; CSC inhib: -4; MT1-MMP act inh: 2; Yeast UUG start: -12; Rce1 inh: inactive; MT1-MMP act inh RFP: -2

How did CCC(C)c1ccccc1NC(=O)C(C)NCCN(C)C (configuration not stated) do in these assays?
eIF4H FP inh: 4; PABP FP inh: 24; CSC inhib: -10; HIV Env fusion: 6; MT1-MMP act inh: -2; Yeast UUG start: 1; Rce1 inh: inactive; MT1-MMP act inh RFP: -1

What do the screens show for `CCc1nc2ccc(C(=O)NCCCn3ccnc3)cn2c1N(C)Cc1cccs1`?
HIV Env fusion: 16; MT1-MMP act inh: -2; Yeast UUG start: -19; MT1-MMP act inh RFP: 3

What do the screens show for `CCOc1ccc(C(=O)CCC(=O)NC(C)C(=O)OC)cc1` (configuration not stated)?
eIF4H FP inh: -3; PABP FP inh: -2; CSC inhib: -2; HIV Env fusion: -9; Yeast UUG start: -14; Rce1 inh: inactive

What do the screens show for `CC(C)NC(=O)COC(=O)c1cc(Br)ccc1Cl`?
eIF4H FP inh: -4; PABP FP inh: -4; CSC inhib: 1; MT1-MMP act inh: -1; Rce1 inh: inactive; MT1-MMP act inh RFP: 7

Results for COc1ccc(C(=O)COC(=O)COc2cc(C)cc(C)c2)cc1 ?
eIF4H FP inh: -1; PABP FP inh: -6; CSC inhib: -14; MT1-MMP act inh: 2; Yeast UUG start: -2; Rce1 inh: inactive; MT1-MMP act inh RFP: 2

How did NS(=O)(=O)c1cccc(NC(=O)CCc2ccc(S(=O)(=O)N3CCOCC3)cc2)c1 do in these assays?
HIV Env fusion: 0; MT1-MMP act inh: 4; Yeast UUG start: -5; MT1-MMP act inh RFP: 4

What do the screens show for `CC(C)(C)C1CCC(=NNS(=O)(=O)c2ccc(Br)cc2)CC1` (configuration not stated)?
eIF4H FP inh: -3; PABP FP inh: 0; CSC inhib: 1; HIV Env fusion: -22; MT1-MMP act inh: -1; Yeast UUG start: -15; Rce1 inh: inactive; MT1-MMP act inh RFP: 0

Results for CCN(CC)S(=O)(=O)c1cc([N+](=O)[O-])ccc1N=Nc1c(O)[nH]c2ccccc12 ?
eIF4H FP inh: 2; PABP FP inh: 2; CSC inhib: 1; HIV Env fusion: -9; MT1-MMP act inh: -11; Yeast UUG start: -1; Rce1 inh: inactive; MT1-MMP act inh RFP: -6

What do the screens show for `Nc1nc(SCC(=O)Nc2ncc(C(F)(F)F)cc2Cl)n[nH]1`?
eIF4H FP inh: -8; PABP FP inh: 8; CSC inhib: -17; HIV Env fusion: 1; Rce1 inh: inactive

Results for CN(C)CCCNC(=O)/C(=C\c1ccc(-c2cccc([N+](=O)[O-])c2)o1)NC(=O)c1ccccc1 ?
eIF4H FP inh: 4; PABP FP inh: 0; CSC inhib: 12; HIV Env fusion: -6; MT1-MMP act inh: -2; Rce1 inh: inactive; MT1-MMP act inh RFP: -3

How did O=C(COC(=O)CCCNC(=O)c1ccc(Cl)cc1)NC1CC1 do in these assays?
eIF4H FP inh: 4; PABP FP inh: 4; CSC inhib: -11; HIV Env fusion: -21; MT1-MMP act inh: 1; Yeast UUG start: -6; Rce1 inh: inactive; MT1-MMP act inh RFP: 1

How did Fc1ccc(NC(=S)NC2CC3CCCC(C2)N3Cc2cccs2)cc1 (configuration not stated) do in these assays?
eIF4H FP inh: -5; PABP FP inh: -2; CSC inhib: -4; HIV Env fusion: -13; MT1-MMP act inh: -2; Rce1 inh: inactive; MT1-MMP act inh RFP: 7

How did COc1ccc(S(=O)(=O)N2CCCOC2CNC(=O)C(=O)NCCO)cc1 (configuration not stated) do in these assays?
HIV Env fusion: -8; MT1-MMP act inh: -1; Yeast UUG start: -8; MT1-MMP act inh RFP: 1

Results for CN(CC(=O)NC1CC1)S(=O)(=O)c1cc(Cl)ccc1Cl ?
eIF4H FP inh: 2; PABP FP inh: -4; CSC inhib: -2; HIV Env fusion: 18; MT1-MMP act inh: 0; Yeast UUG start: -16; Rce1 inh: inactive; MT1-MMP act inh RFP: -2

What do the screens show for `O=C1CC(c2c[nH]c3ccccc23)C(=O)N1c1ccccc1` (configuration not stated)?
eIF4H FP inh: -1; PABP FP inh: 1; HIV Env fusion: -117; MT1-MMP act inh: 0; Yeast UUG start: -8; Rce1 inh: inactive; MT1-MMP act inh RFP: 2

What do the screens show for `Cc1cccn2c(=O)nc(SCC(=O)NC3CCCCC3)nc12`?
CSC inhib: -3; HIV Env fusion: -12; MT1-MMP act inh: 4; Yeast UUG start: -16; Rce1 inh: inactive; MT1-MMP act inh RFP: 2

How did COCCCNC(=O)c1nc2ccccc2c(=O)n1NC(=O)Nc1c(Cl)cccc1Cl do in these assays?
eIF4H FP inh: 1; PABP FP inh: -1; CSC inhib: -6; HIV Env fusion: -11; MT1-MMP act inh: 1; Yeast UUG start: -16; Rce1 inh: inactive; MT1-MMP act inh RFP: 2

Results for O=C(Nc1cccc(S(=O)(=O)NC2=NCCC2)c1)c1cc(Cl)ccc1[N+](=O)[O-] ?
CSC inhib: -12; MT1-MMP act inh: -2; Rce1 inh: inactive; MT1-MMP act inh RFP: 3

What do the screens show for `COc1ccccc1C(=O)Nn1cnc2ccccc2c1=O`?
eIF4H FP inh: 0; PABP FP inh: -10; MT1-MMP act inh: 2; Yeast UUG start: -2; Rce1 inh: inactive; MT1-MMP act inh RFP: -2

What do the screens show for `Cc1ccc(N(CC(=O)NC2CCCCC2)C(=O)CNC(=O)c2ccco2)c(C)c1`?
eIF4H FP inh: -11; PABP FP inh: 9; CSC inhib: -12; HIV Env fusion: -4; MT1-MMP act inh: 7; Yeast UUG start: -10; MT1-MMP act inh RFP: 8

What do the screens show for `CCc1nnc(NS(=O)(=O)c2ccc(NC(=O)c3cccc4ccccc34)cc2)s1`?
eIF4H FP inh: 2; PABP FP inh: -3; CSC inhib: -7; HIV Env fusion: 5; MT1-MMP act inh: 7; Yeast UUG start: -5; Rce1 inh: inactive; MT1-MMP act inh RFP: 5

What do the screens show for `c1ccc(-c2ccccc2OCCCCN2CCCCC2)cc1`?
eIF4H FP inh: 1; PABP FP inh: 17; CSC inhib: 16; HIV Env fusion: -6; MT1-MMP act inh: 1; Rce1 inh: inactive; MT1-MMP act inh RFP: 5

How did C=CCn1c(SCC(=O)NCc2ccco2)nc2sc(C)c(C)c2c1=O do in these assays?
CSC inhib: 10; HIV Env fusion: 1; MT1-MMP act inh: 0; Yeast UUG start: -9; Rce1 inh: inactive; MT1-MMP act inh RFP: -2

Results for Cc1ccc(N2CCN(/N=C/C3=C(N4CCOCC4)C(=C\c4ccccc4)/CC3)CC2)cc1 ?
eIF4H FP inh: -2; PABP FP inh: -14; CSC inhib: -3; Rce1 inh: inactive

Results for CCc1ccc(NC(=S)N2CCCC2)cc1 ?
eIF4H FP inh: -4; PABP FP inh: 7; CSC inhib: -10; HIV Env fusion: -42; MT1-MMP act inh: 0; Yeast UUG start: -22; Rce1 inh: inactive; MT1-MMP act inh RFP: 5

Results for O=C(c1ccccc1)N1N=C(c2cccs2)CC1c1ccccc1O (configuration not stated) ?
eIF4H FP inh: -2; PABP FP inh: 0; CSC inhib: -7; HIV Env fusion: 21; MT1-MMP act inh: -3; Yeast UUG start: 10; Rce1 inh: inactive; MT1-MMP act inh RFP: -2

How did CCCCCCC(=O)Nc1ccc(Br)cn1 do in these assays?
eIF4H FP inh: -4; PABP FP inh: 0; CSC inhib: 19; HIV Env fusion: -13; MT1-MMP act inh: 2; Yeast UUG start: 9; Rce1 inh: inactive; MT1-MMP act inh RFP: 5

How did COc1ccc(-c2c(-c3cc(OC)cc(OC)c3)n(C)c3ccc(-c4ccc5[nH]ccc5c4)cc23)cc1 do in these assays?
CSC inhib: 15; HIV Env fusion: 3; MT1-MMP act inh: -5; Yeast UUG start: -22; MT1-MMP act inh RFP: -2

Results for O=C(NCc1cccc(C(F)(F)F)c1)c1ccc2sc([C@H]3C[C@H](O)[C@@H](CO)O3)nc2c1 ?
HIV Env fusion: 10; MT1-MMP act inh: 1; Yeast UUG start: -21; MT1-MMP act inh RFP: -5

How did CCOC(=O)C(=CNc1ccc(S(N)(=O)=O)cc1)C(=O)OCC do in these assays?
eIF4H FP inh: 8; PABP FP inh: -2; CSC inhib: -13; HIV Env fusion: 12; MT1-MMP act inh: 2; Yeast UUG start: -15; Rce1 inh: inactive; MT1-MMP act inh RFP: 8

How did O=C(CSc1nnc(-c2cccc(S(=O)(=O)N3CCCCC3)c2)o1)NCCC1=CCCCC1 do in these assays?
eIF4H FP inh: -6; PABP FP inh: 2; CSC inhib: 10; HIV Env fusion: 11; MT1-MMP act inh: 16; Rce1 inh: inactive; MT1-MMP act inh RFP: 2

What do the screens show for `c1ccc(CCn2nnnc2CN2CCCc3ccccc32)cc1`?
eIF4H FP inh: inconclusive; PABP FP inh: inconclusive; CSC inhib: 11; MT1-MMP act inh: -122; Yeast UUG start: -4; Rce1 inh: inactive; MT1-MMP act inh RFP: 21

How did COc1cccc(OC(C)c2ccnc3nc(/N=C/N(C)C)nn23)c1 (configuration not stated) do in these assays?
eIF4H FP inh: -4; PABP FP inh: 0; CSC inhib: -5; HIV Env fusion: 11; MT1-MMP act inh: 2; Yeast UUG start: -19; Rce1 inh: inactive; MT1-MMP act inh RFP: 3

What do the screens show for `CCOc1ccc2[nH]c(=O)c(CN(Cc3nnnn3Cc3ccco3)C3CCCCC3)cc2c1`?
eIF4H FP inh: 57*; PABP FP inh: 32*; CSC inhib: -8; MT1-MMP act inh: -3; Yeast UUG start: -14; Rce1 inh: inactive; eIF4H FP inh retest: 78*; PABP FP inh retest: 87*; MT1-MMP act inh RFP: 1

How did CCOC(=O)COc1ccc(S(=O)(=O)N2CCN(C(=O)OCC)CC2)cc1 do in these assays?
eIF4H FP inh: -8; PABP FP inh: -5; CSC inhib: -1; MT1-MMP act inh: 3; Yeast UUG start: 8; Rce1 inh: inactive; MT1-MMP act inh RFP: 2

What do the screens show for `Cc1ccc2c(c1)N(CC(=O)N1CCN(c3ccccc3)CC1)C(=O)C(C)O2` (configuration not stated)?
eIF4H FP inh: 1; PABP FP inh: 13; CSC inhib: 1; HIV Env fusion: 8; MT1-MMP act inh: 2; Yeast UUG start: 5; Rce1 inh: inactive; MT1-MMP act inh RFP: 0

What do the screens show for `CCOc1cc(S(=O)(=O)NCc2cccs2)ccc1Cl`?
eIF4H FP inh: -2; PABP FP inh: -6; CSC inhib: 0; MT1-MMP act inh: -2; Yeast UUG start: -12; Rce1 inh: inactive; MT1-MMP act inh RFP: -3

What do the screens show for `CC(C)c1cc(C(=O)N/N=C/c2ccoc2)cs1`?
eIF4H FP inh: 14; PABP FP inh: -2; CSC inhib: -8; HIV Env fusion: -15; MT1-MMP act inh: -1; Yeast UUG start: -15; Rce1 inh: inactive; MT1-MMP act inh RFP: 7

What do the screens show for `O=[N+]([O-])c1cccc(-c2nnc(-c3ccccc3F)o2)c1`?
eIF4H FP inh: 8; PABP FP inh: 6; CSC inhib: -9; HIV Env fusion: -56; MT1-MMP act inh: -2; Yeast UUG start: -1; Rce1 inh: inactive; MT1-MMP act inh RFP: 0
